Assay outcomes deposited in PubChem by several laboratories.
Rce1 inhib: yeast Ras-converting enzyme inhibition; Q03530; yeast membranes, quenched prenylated peptide cleavage fluorescence; calls only; actives 0.27% (n = 290,000);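 active = fall in fluorescence gain of 50% or more versus controls, with final raw signal at or below 3038400; inconclusive = same 50% fall but final raw signal above 3038400; inactive = fall in fluorescence gain under 50%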;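 also: plate controls were neutral control wells for no effect and wells lacking membranes for full effect; tested at 10 µM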
Target sequence (Q03530 whole entry, looked up): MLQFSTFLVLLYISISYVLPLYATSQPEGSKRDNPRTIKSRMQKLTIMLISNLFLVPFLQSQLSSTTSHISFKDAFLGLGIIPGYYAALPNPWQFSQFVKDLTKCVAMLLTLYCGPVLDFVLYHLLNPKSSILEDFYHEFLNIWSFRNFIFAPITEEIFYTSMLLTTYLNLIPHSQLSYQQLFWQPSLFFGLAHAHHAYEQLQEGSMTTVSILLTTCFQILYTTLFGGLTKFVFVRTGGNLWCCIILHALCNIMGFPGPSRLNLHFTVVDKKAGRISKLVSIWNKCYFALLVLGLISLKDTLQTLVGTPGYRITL
eIF4H FP inh: inhibitors of RNA binding by human eIF4H | actives 0.94% (n = 290,000) | Q15056 | eIF4H fluorescence polarization binding assay | inhibition, % at 35 µM | AID 2012;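 active = 50% or more with normal probe brightness, or confirmed in later tests; inconclusive = above 50% with abnormal brightness, or retests that disagree; inactive = below 50% or failed in later tests; about a fifth of its hits are not listed in these tables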;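 also: calls also rest on retests at 20 µM and on dose response follow-up; 0% = protein and probe with vehicle and 100% = probe without protein; strong numbers were not always called active; many hits fall short of the cut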
Yeast UUG start: alters start codon recognition fidelity in yeast; activity score, % at 18.7 µM; actives 0.13% (n = 350,000); S. cerevisiae UUG-firefly luciferase reporter, luminescence/redox ratio;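 active = replicate mean at a twofold rise or more, about +100% in these data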;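 also: firefly luciferase made from a UUG start codon reports start codon fidelity; reporter light over untreated wells divided by growth signal over untreated wells; some hits fall short of that in this replicate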
MT1-MMP act inh: inhibitors of human MT1-MMP activation; P50281; HT1080 RFP-PRO-GFP cells, GFP/RFP ratio fluorescence, overnight; percent of plate control window, DMSO zero; GFP/RFP ratio change, % at 20 µM; actives 0.061% (n = 360,000);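 active = GFP/RFP ratio change of at least 30% with cell ATP level not reduced by more than half and red fluorescence within 50% of control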; also: strong numbers were not always called active
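Read-out: GFP/RFP fluorescence ratio; Test system: RFP-PRO-GFP reporter HT1080 cells; Compound dosing: single-point 20 µM compound, 1% DMSO; Times: overnight compound exposure at 37 °C.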
HIV Env fusion: inhibitors of HIV Env-mediated cell fusion. HeLa-JRFL Env/CEM21 cell fusion, luciferase. inhibition, % at 12.3 µM. actives 1.1% (n = 360,000). AID 651610;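 active = mean replicate inhibition score of at least 50 and every replicate individually at or above 50; inconclusive = only one of the two criteria met; inactive = mean below 50 and not all replicates reaching 50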;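 also: 0% = plate neutral controls and 100% = maraviroc near 300 nM; one replicate is shown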
CSC inhib: blocks cancer stem cells; actives 1.1% (n = 300,000); cancer stem cell-like cells viability, luminescence; inhibition, % at 7.5 µM;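 active = mean at 75% or more and at least half the replicates too; inconclusive = mean and replicates disagree; tested in HMLE shEcad cells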;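 also: 0% = median of negative and 100% = median of positive control wells; the first replicate is given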
PABP polyA inh: blocks human PABP binding to poly(A) RNA | fluorescence polarization | actives 1% (n = 290,000) | inhibition, % at 35 µM;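 active = 50% or more with normal probe brightness, or confirmed in later tests; inconclusive = above 50% with abnormal brightness, or retests that disagree; inactive = below 50% or failed in later tests; about a fifth of its hits are not listed in these tables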;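 also: calls also rest on retests at 20 µM and on dose response follow-up; controls were probe without protein and protein plus probe with vehicle; some compounds called inactive have numbers as strong as hits; many hits fall short of the cut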
eIF4H FP inh retest: recorded beside eIF4H FP inh, whose call it bears; inhibition, %; compound at 20 µM; confirmation average;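 mean of two retest wells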
PABP polyA inh retest: second read-out of PABP polyA inh, no call of its own (marks repeat the call); inhibition, %; compound at 20 µM; confirmation repeats;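 mean of two retest wells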
MT1-MMP act inh RFP: second read-out of MT1-MMP act inh, no call of its own (marks repeat the call); RFP signal change, %; measured here: RFP expression control read;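 0 = vehicle wells; hits needed this value within 50% of zero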
An asterisk follows results filed as active; i = inactive; ? = inconclusive; . = no result given.

SMILES	Rce1 inhib	eIF4H FP inh	Yeast UUG start	MT1-MMP act inh	MT1-MMP act inh RFP	HIV Env fusion	CSC inhib	PABP polyA inh	others
O=C(Nc1ccccc1N1CCCCC1)c1ccc(F)c(S(=O)(=O)N2CCOCC2)c1	i	.	.	-5	-11	22	-12	.
[O-][n+]1cccc2cccc(O)c21	.	.	-33	1	3	9	.	.
CCOC(=O)N1CCN(C(=O)c2ccc3c(=O)n(-c4cc(OC)ccc4OC)c(=S)[nH]c3c2)CC1	i	-2	-11	1	3	-7	-14	15
O=C(NCCCN1CCOCC1)c1ccc(CSc2ccc(Cl)cc2)cc1	i	-6	.	0	-2	5	76*	1
O=C(Nc1cccc(Cl)c1)c1ccc2ncsc2c1	i	-7	-15	-2	-1	-21	.	10
O=S(=O)(NCc1cn2ccsc2n1)c1ccc2c(c1)OCCO2	i	-2	-16	0	-7	.	-4	10
O=S(=O)(Cc1cnc(Cl)s1)c1ccccc1	i	-5	-18	4	5	.	2	2
N#Cc1ccc(OCC(=O)N/N=C2\CCc3ccccc32)cc1	i	-1	-30	-6	5	.	-5	7
Cc1csc(SCC(=O)N2CCN(S(=O)(=O)c3ccccc3)CC2)n1	i	-4	-14	4	2	-27	.	0
O=C(c1cc(=O)[nH]c2ccccc12)N(Cc1nnc(-c2ccccc2Cl)o1)C1CC1	i	.	17	-5	0	14	-9	.
O=C(c1ccc(COc2ccccc2Br)cc1)N1CCCCC1	i	-2	.	4	-3	.	-9	5
COc1ccc(C2(C(N)=O)CCCCC2)cc1OC	i	6	.	-4	1	.	-6	-3
COc1ccc(C(=O)NC2(C(F)(F)F)NC(=O)N(CCCc3ccccc3)C2=O)c(OC)c1OC (stereo not given)	i	-3	0	3	1	-37	16	9
COc1ccc(C)cc1NC(=O)c1ccc2c(c1)OCO2	i	-1	10	-2	-2	-23	-8	-6
Cc1noc(C)c1S(=O)(=O)N1CCCC1C(=O)O (stereo not given)	i	-15	.	-2	0	-6	.	-4
O=c1cc(O)c2sc3nc(-c4cccnc4)cc(C(F)(F)F)c3c2[nH]1	i	-2	.	-52	2	9	15	4
COc1cccc(NC(=O)CN(C)C(=O)Cc2cccc3ccccc23)c1	.	.	-1	-3	-1	.	-14	.
Cn1c2ccc(F)cc2c2nnc(SCCN3CCOCC3)nc21	i	7	-10	-1	0	12	.	9
CC(=O)N1c2ccc(S(=O)(=O)N3CCCC3C(=O)NCc3ccc(Cl)cc3)cc2CC1C (stereo not given)	i	-7	12	-5	-5	5	.	0
CCN1CCc2c(sc(NC(=O)c3ccc(S(=O)(=O)N(C)CC4CCCO4)cc3)c2C(N)=O)C1 (stereo not given)	i	-13	-18	1	-2	.	-12	-10
COc1ccc(N2CCN(C(=O)c3cn(C4CCCC4)c(=O)c4c3c3ccccc3n4C)CC2)cc1	i	9	-11	-9	-12	-73	15	0
NC(CC(=O)O)c1ccc(F)cc1 (stereo not given)	i	-1	.	-2	-1	15	-3	-7
CN(c1ccccc1)S(=O)(=O)c1ccc(C(=O)NCCc2ccccc2)cc1	i	-1	-16	0	-1	-11	0	-18
COC1CCC2(C)C(=CCC3C4CC(O)CC4(C)CCC32)C1 (stereo not given)	.	.	-1	4	-11	13	.	.
COc1ccc(Cn2cc(F)c(=O)n(C)c2=O)cc1[N+](=O)[O-]	i	0	.	0	8	-3	0	-8
SMILES	Rce1 inhib	eIF4H FP inh	Yeast UUG start	MT1-MMP act inh	MT1-MMP act inh RFP	HIV Env fusion	CSC inhib	PABP polyA inh	others
Cc1cc(C)c2c(n1)nn1c(NCCN3CCOCC3)cc(C)nc21	?	-1	-15	11	2	-96	-20	-3
Cc1cc(Nc2cnc3ccccc3n2)n(-c2ccccc2)n1	i	-1	-2	4	-3	27	7	-5
Cc1cc(C(=O)CSc2nnc(-c3ccccc3)n2C)c(C)n1C	.	8	-8	4	2	-29	-12	7
CC(C)CC1CC(C)(c2csc(NNC(=O)c3ccccc3)n2)OC1=O (stereo not given)	i	4	.	3	2	-22	-12	16
Cc1cc(Br)c(NC(=O)COC(=O)CC2CC3CCC2C3)c(Br)c1 (stereo not given)	.	.	-12	3	1	0	-17	.
CSc1ccc(CNc2ccccc2)cc1	i	-10	.	.	.	.	7	1
CCOc1ccc(C(=O)NC(=S)Nc2cccnc2)cc1[N+](=O)[O-]	i	-5	.	2	-4	16	-13	-17
COc1ccc(C(=O)N2CCN(C(=O)C3CCCO3)CC2)cc1[N+](=O)[O-] (stereo not given)	.	.	-2	4	2	-9	-13	.
COc1cc(/C=C/C(=O)OCC(=O)NC(=O)NC(C)C)cc(S(=O)(=O)N2CCc3ccccc32)c1OC	i	-2	-15	4	-3	1	-10	5
Cn1nccc1C(=O)NC1CCCc2c1cnn2-c1ccc(F)cc1F (stereo not given)	i	-18	-5	3	-28	35	8	2
CC1CCN(CCc2nc3cc(NS(=O)(=O)c4ccc(F)cc4)ccc3n2C)CC1	i	-7	.	-4	-5	18	-9	-8
Nc1ccc(-n2cnc3cc([N+](=O)[O-])ccc32)cc1	i	-3	-13	6	-2	.	1	-5
C#CCn1cccc(C(=O)Nc2ccc(OC)cc2)c1=O	i	-5	-2	2	-5	-13	2	10
O=C(Cc1cccc([N+](=O)[O-])c1)Nc1ccccc1	.	.	-9	0	-1	-3	.	.
COc1ccc(N2CC(C(=O)NCc3n[nH]c(=O)c4ccccc34)CC2=O)cc1 (stereo not given)	i	.	-18	0	-1	-4	.	.
COC(=O)c1cc(OC)c(OC)cc1NC(=O)c1ccoc1C	i	9	.	.	.	.	.	2
COc1ccc(C(=O)NCC(C)(C)SCc2c(C)cc(C)cc2C)cc1	i	-1	-24	0	-6	.	24	-2
CN(C)c1cccc(C(=O)N2CCCC(CCC(=O)N3CCN(c4ccccn4)CC3)C2)c1 (stereo not given)	i	-14	-20	1	-2	-5	9	-13
Cc1ccccc1Nc1nc(-c2cccnc2)cs1	i	4	-15	-4	-7	-60	-6	-5
C#CCNC(=O)C1=C[C@@H](C)C[C@@H](OCc2ccc(CO)cc2)O1	i	6	3	-2	2	-1	-9	5
O=C(CSc1nncs1)NCCCc1ccccc1	i	-4	.	5	5	8	.	8
CCCCCCCc1c(O)nc(SCCN2CCOCC2)[nH]c1=O	i	-3	-20	0	3	-12	-9	-2
CCc1ccc(NC(=O)Cn2c(SC)nc3ccccc32)cc1	i	2	-8	7	-4	.	-9	-4
O=C(CSc1nc2c([nH]c3ccccc32)c(=O)n1-c1ccccc1F)NCC1CCCO1 (stereo not given)	i	82	12	-5	-4	-12	12	1	eIF4H FP inh retest=2;PABP polyA inh retest=15
Cc1cccc(NC(=O)CSc2nc(N)c(NC(=O)c3cccs3)c(=O)[nH]2)c1C	i	5	-14	-1	1	31	-9	4

Molecules from the list above with a thiophene ring, fused or not (3):
SMILES	Rce1 inhib	eIF4H FP inh	Yeast UUG start	MT1-MMP act inh	MT1-MMP act inh RFP	HIV Env fusion	CSC inhib	PABP polyA inh	others
O=c1cc(O)c2sc3nc(-c4cccnc4)cc(C(F)(F)F)c3c2[nH]1	i	-2	.	-52	2	9	15	4
CCN1CCc2c(sc(NC(=O)c3ccc(S(=O)(=O)N(C)CC4CCCO4)cc3)c2C(N)=O)C1 (stereo not given)	i	-13	-18	1	-2	.	-12	-10
Cc1cccc(NC(=O)CSc2nc(N)c(NC(=O)c3cccs3)c(=O)[nH]2)c1C	i	5	-14	-1	1	31	-9	4

Structural class: those above containing a Cl atom
SMILES	Rce1 inhib	eIF4H FP inh	Yeast UUG start	MT1-MMP act inh	MT1-MMP act inh RFP	HIV Env fusion	CSC inhib	PABP polyA inh	others
O=C(NCCCN1CCOCC1)c1ccc(CSc2ccc(Cl)cc2)cc1	i	-6	.	0	-2	5	76*	1
O=C(Nc1cccc(Cl)c1)c1ccc2ncsc2c1	i	-7	-15	-2	-1	-21	.	10
O=S(=O)(Cc1cnc(Cl)s1)c1ccccc1	i	-5	-18	4	5	.	2	2
O=C(c1cc(=O)[nH]c2ccccc12)N(Cc1nnc(-c2ccccc2Cl)o1)C1CC1	i	.	17	-5	0	14	-9	.
CC(=O)N1c2ccc(S(=O)(=O)N3CCCC3C(=O)NCc3ccc(Cl)cc3)cc2CC1C (stereo not given)	i	-7	12	-5	-5	5	.	0

(more compounds)
SMILES	Rce1 inhib	eIF4H FP inh	Yeast UUG start	MT1-MMP act inh	MT1-MMP act inh RFP	HIV Env fusion	CSC inhib	PABP polyA inh	others
CCn1ncc(CN2CCCC(CNC(=O)c3ccc(F)cc3)C2)c1C (stereo not given)	i	-6	.	2	1	9	-5	-8
CCC1(c2ccc(F)cc2)NC(=O)N(CC(=O)N2CCN(C(=O)c3cccs3)CC2)C1=O (stereo not given)	.	.	-18	1	0	1	.	.
CCOC(=O)c1c(C)[nH]c(C(=O)Cn2nnc(-c3ccccc3Cl)n2)c1C	i	5	-7	-5	-6	.	-1	-1
COC(=O)c1[nH]c2ccc(C)cc2c1NC(=O)NC1CCCCC1	i	-3	.	5	3	.	-6	-1
C=CC(=O)NN(C)c1ncc(C(F)(F)F)cc1Cl	i	-4	.	6	9	10	5	5
CC1(C(=O)NS(=O)(=O)c2cccc(Cl)c2)CCN1C(=O)c1cccc2ccccc12 (stereo not given)	.	.	6	1	3	-11	.	.
COc1ccc(/C=N/NC(=O)c2cc(C34CC5CC(CC(C5)C3)C4)[nH]n2)cc1O	i	-9	.	5	6	.	97*	6
CCN(CC)C(=O)c1cn(-c2ccccc2)nc1-c1ccc2c(c1)OCCO2	i	4	10	-3	0	5	5	-3
CCOc1ccccc1-n1c(SCC(=O)N2CCCC2)nnc1-c1ccoc1C	i	7	4	-5	1	.	-17	8
COc1ccc(/C=C/C(=O)N2CCN(C)CC2)cc1S(=O)(=O)N1CCCCC1	i	-1	.	1	3	5	31	-2
COc1ccc([C@@H]2[C@@H]3C(=O)N(C(C)(C)C)C(=O)[C@@H]3[C@]3(CC(C)C)C(=O)N(c4cccc(Br)c4)C(=O)N23)cc1	i	2	-15	-4	-9	90*	-3	2
CC(=O)N[C@@H](Cc1c[nH]c2ccccc12)C(=O)OCC(=O)NCc1ccc2c(c1)OCO2	i	2	-18	1	1	-13	-1	7
CC(CCc1ccccc1)NC(=O)c1ccccc1F (stereo not given)	i	-6	55	0	0	-6	0	-7
Cc1ccc(S(=O)(=O)N2CCOCC2)cc1C(=O)NC1CCCC(C)C1C (stereo not given)	i	.	0	3	0	25	.	.
CCCOc1ccc(Oc2cc(C)nc(SC)n2)nn1	i	8	-16	0	1	-21	.	-1
CCSc1nnc(NC(=O)c2ccc3c(c2)OCO3)s1	i	3	-19	6	-1	-317	9	-6
O=C(CCN1C(=O)/C(=C/c2ccccc2)SC1=S)NNC(=O)c1cccnc1	i	-5	.	1	4	.	11	22
COc1ccccc1N1C(=O)C(Cl)=C(Nc2ccccc2O)C1=O	i	49	.	-42	2	-34	.	11

Only part of the results is shown. The share of hits here may be higher or lower than overall.
